Bioassay records as filed in PubChem.
VDR inh: inhibitors of human vitamin D receptor | Potency, µM, inactives show max response, negative = inhibition, usual class: inhibitors | 400,000 tested, 0.93% active | AID 504847 | VDR-SRC2-3 peptide fluorescence polarization, 2 h | P11473; active means well fitted inhibition curve with a large enough effect; inconclusive means small, poorly fitted or top-dose-only effect, or another doubt; inactive means no such curve, though single readings can be large or run the other way; further: series mostly up to about 120 µM
Target sequence (P11473 whole entry, looked up): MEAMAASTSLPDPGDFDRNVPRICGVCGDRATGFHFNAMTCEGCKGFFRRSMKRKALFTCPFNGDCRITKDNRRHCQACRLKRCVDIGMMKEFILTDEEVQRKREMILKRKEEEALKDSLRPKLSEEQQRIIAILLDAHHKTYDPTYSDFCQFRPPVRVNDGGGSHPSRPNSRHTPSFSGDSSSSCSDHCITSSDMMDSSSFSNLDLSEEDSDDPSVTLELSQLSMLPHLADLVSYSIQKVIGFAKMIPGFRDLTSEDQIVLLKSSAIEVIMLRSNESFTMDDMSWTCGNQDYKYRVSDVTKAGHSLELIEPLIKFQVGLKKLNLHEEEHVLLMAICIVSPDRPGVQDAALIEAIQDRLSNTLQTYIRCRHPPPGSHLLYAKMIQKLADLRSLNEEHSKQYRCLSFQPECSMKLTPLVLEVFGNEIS
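After 23 nl compound addition and a short centrifugation, plates sat for 2 hours at ambient temperature; polarization of fluorescence then indicated loss of VDR binding to peptide SRC2-3.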
Numbers without * were called inactive; u = inconclusive; ! = a repeat was not active. On the % scale 0 is the no-effect control and ±100 the full control effect; potency means the concentration at half of the fitted maximal effect.

VDR inh	Molecule
-8%	Cc1nnsc1C(=O)Nc1cc(Cl)ccc1Cl
-3%	CCOC(=O)CN(C(=O)CNC(=O)c1cccs1)C(C(=O)NC1CCCC1)c1ccncc1 (stereo not given)
10%	CCOc1ccc(S(=O)(=O)/N=C(\N)c2ccccc2)cc1
9%	CN1C(=O)Cc2cc(S(=O)(=O)CCC(=O)Nc3cccc(C(F)(F)F)c3)ccc21
-13%	O=C(Nc1ccncc1)c1ccc2ccccc2c1
2%	CC(=O)c1ccc(NS(=O)(=O)c2cccc(S(=O)(=O)c3ccc(Cl)cc3)c2)cc1
-18%	Cc1nn(S(=O)(=O)c2cccc([N+](=O)[O-])c2)c(C)c1Br
30%	CCOc1ccccc1OCC(=O)Nc1ccc(N2CCCCC2)cc1
-7%	CCN(CC)CCn1c(/N=C/c2cc(Br)ccc2O)nc2ccccc21
-12%	Cc1ccc2nc(Br)c3c(c2c1)OC(CBr)C3 (stereo not given)
-2%	COc1ccc(OC)c(NC(=O)CSc2nnc(NC(=O)c3ccco3)s2)c1
-14%	CCOC(=O)c1c(C)[nH]c(C(=O)COC(=O)/C=C/c2ccc(O)c(OC)c2)c1C
20µM*	FC(F)(F)C1CCCN(c2nsc3ccccc23)C1 (stereo not given)
-1%	COc1cc(/C=C(\C#N)c2nnc(N3CCOCC3)n2-c2ccccc2)ccc1O
10%	Cc1ccc(-n2ncc3c(=O)n(Cc4ccccn4)cnc32)cc1C
7%	Cc1nc2ccccn2c1C(=O)C(=O)Nc1cc(F)ccc1F
-15%	Cn1c(-c2ccccc2)n[nH]c1=S
-7%	CC1CCN(CCCCOc2ccc(Cl)cc2)CC1
6%	C=CCOC(=O)NC(c1ccc(F)c(F)c1)C(C(C)=O)C(=O)OC (stereo not given)
-6%	CC(C)(C)c1ccc(C(=O)Nc2nnc(C3=COCCO3)o2)cc1
1%	CCN(CC)Cc1c(O)ccc2cc(-c3nc4ccccc4n3C)c(=O)oc12
-2%	Cc1cccc(C)c1NC(=O)COC(=O)c1cccnc1
7%	Cc1ccc(S(=O)(=O)N2CCN(C(=O)COC(=O)c3cnc(C)cn3)CC2)c(C)c1
6%	O=C(O)[C@H](CC(=O)N1C[C@H]2CCCC[C@H]2C1)Cc1ccccc1
12%	Cc1cccc(C(=O)Nc2nnc(-c3ccco3)o2)c1
-27%	O=C(c1ccco1)N1CCN(C(=O)C2CC(c3ccc(F)cc3)=NO2)CC1 (stereo not given)
-2%	O=C(Cn1c(NCCO)nc2ccccc21)N1CCN(Cc2ccccc2)CC1
u	O=C(NCc1ccc2c(c1)OCO2)C1CCCCC1
-10%	Nc1n[nH]c(-c2ccc(F)cc2)n1
11%	CCC(CCC(=O)Nc1ccc(S(N)(=O)=O)cc1)C(=O)O (stereo not given)
-5%	COc1ccc(OC)c(S(=O)(=O)N2CCCC(C(=O)NCc3ccncc3)C2)c1 (stereo not given)
12%	CS(=O)(=O)c1ccc(Cl)c(NC(=O)COC(=O)CCCN2C(=O)c3cccc4cccc(c34)C2=O)c1
8%	CC(Oc1ccccc1)C(=O)N=C1SC2CS(=O)(=O)CC2N1Cc1ccc(F)cc1 (stereo not given)
-10%	COc1ccc(Cl)cc1C(=O)CSc1nnnn1C1CCCC1
1%	COc1cccc(CNCc2cccnc2)c1OCc1ccccc1
u	CC(C(=O)Nc1nncs1)N1C(=O)C2C3C=CC(C3)C2C1=O (stereo not given)
-10%	CC(C)NC(=O)COc1ncnc2sccc12
-6%	O=C(Nc1ccc2c(c1)OCO2)N1CCN(c2ccc(F)cc2)CC1
-6%	CCc1ccnc(NC(=O)Nc2ccc(OCc3ccccc3)cc2)c1
-11%	Cc1ccc(C(=O)Cn2nnc3ccccc32)cc1[N+](=O)[O-]
9%	CCOC(=O)Cc1csc(NC(=O)c2ccc(S(=O)(=O)N(CCOC)CCOC)cc2)n1
-9%	CCCCCSc1nc2c(c(=O)[nH]c(=O)n2C)n1C
-21%	COc1ccc(-c2cc(C(=O)N3CCCCC3)no2)cc1OC
-2%	Cc1cnc(C(=O)OCc2ccc(Br)cc2F)cn1
-29%	CN1C[C@@H]2[C@@H]3C(=O)N(C)C(=O)[C@@H]3[C@](C)(C1=O)N2C(=O)c1ccc(Cl)cc1
-1%	Cc1ccc(-c2nn(-c3ccc(F)cc3F)c3c2cnc2c(F)cccc23)cc1
8%	Cc1cc(C)cc(NC2=C(c3ccccc3)C(=O)c3ccccc32)c1
12%	O=C(N/N=C/c1ccc([N+](=O)[O-])s1)c1ccncc1

3 entries already listed, sorted by count of non-hydrogen atoms, rising:
VDR inh	Molecule
12%	O=C(N/N=C/c1ccc([N+](=O)[O-])s1)c1ccncc1
-29%	CN1C[C@@H]2[C@@H]3C(=O)N(C)C(=O)[C@@H]3[C@](C)(C1=O)N2C(=O)c1ccc(Cl)cc1
-1%	Cc1ccc(-c2nn(-c3ccc(F)cc3F)c3c2cnc2c(F)cccc23)cc1

(more compounds)
VDR inh	Molecule
19%	O=S(=O)(Nc1ncnc2sc3c(c12)CCC3)c1ccc2ccccc2c1
10%	CCCOc1ccc(C(=O)NC(=S)N2CCN(c3cc4c(cc3F)c(=O)c(C(=O)O)cn4CC)CC2)cc1
-6%	C#CCOCCOCCOCCNc1nc(N2CCN(C(=O)Cn3cc(CCO)nn3)CC2)nc(N2CCN(C(=O)Cn3cc(CC(C)O)nn3)CC2)n1 (stereo not given)
-1%	COc1ccc(-c2onc(C)c2-c2ccc(C(=O)OC(C)C)o2)c(O)c1
7%	COc1ccccc1N(C)S(=O)(=O)c1ccc(C(=O)NCC(c2ccco2)N2CCCCC2)cc1 (stereo not given)
-7%	COc1ccccc1NC(=O)NNC(=O)CCc1ccccc1
-1%	COc1cccc(CC2(CO)CCCN(Cc3cn[nH]c3-c3cc(C)ccc3C)C2)c1 (stereo not given)
11%	COCCN(C(=O)COC(=O)c1cnc(C)cn1)c1c(N)n(Cc2ccccc2)c(=O)[nH]c1=O
1%	CCOC(=O)c1[nH]c2c(c1C)C(=O)CC(c1ccc(OCC)c(OC)c1)C2 (stereo not given)
7%	O=C(Cn1c(CO)nc2ccccc21)Nc1ccc2c(c1)OCCCO2
6%	COC(=O)c1ccc(/C=C2/SC(=S)N(CCCC(=O)Nc3ccc(O)cc3)C2=O)cc1
-3%	Cc1cc2nc(-c3cccnc3SCC(=O)NC(C)C)[nH]c2cc1C
0%	C=C(C)CSc1nc2c(cc1C#N)CCC2
10%	C[C@H]1COC(=O)[C@H](Cc2ccc(F)cc2)C/C=C\C[C@H](CC(=O)NCCO)C(=O)N1
-7%	NNC(=O)c1sc2cc(C(F)(F)F)cnc2c1-c1cccnc1
12%	O=C1OC(Nc2ccc3ncccc3c2)c2ccccc21 (stereo not given)
8%	CCN(CC)S(=O)(=O)c1cc(NC(=O)c2ccc(-n3cncn3)c([N+](=O)[O-])c2)ccc1C
-11%	Cc1ccc(NC(=O)c2nc3nccc(C)n3n2)cc1S(=O)(=O)N1CCCCC1
1%	Cc1ccc(-c2cc(C(=O)Nc3ccc(S(=O)(=O)Nc4cc(C)on4)cc3)c3ccccc3n2)c(C)c1
-16%	CCOC(=O)c1ccc(-c2c(-c3ccc4c(c3)OCO4)noc2-c2ccsc2)cc1F
3%	O=C(NCCCN1CCOCC1)c1onc(CSc2nc3ccccc3[nH]2)c1C(=O)NCCCN1CCOCC1
4%	O=C(NCc1ccccc1)C1CCCN(S(=O)(=O)c2cccc3nonc23)C1 (stereo not given)
-12%	O=C(COC(=O)c1ccc(Cl)nc1)Nc1ccc(N2CCOCC2)cc1
7%	CCOc1ccccc1C(=O)NC(C(=O)OCC(=O)Nc1nnc(-c2ccccc2)o1)C(C)C (stereo not given)
-1%	Cc1nc2ccccc2c(=O)n1CCN1CCOCC1
-1%	BrC(/C=N/Nc1nc(N2CCOCC2)nc(N2CCOCC2)n1)=C/c1ccccc1
-3%	CC(=O)NS(=O)(=O)c1ccc(NC(=O)C(Sc2ccccc2)c2ccccc2)cc1 (stereo not given)
-8%	Cc1ccc(/C=C2/CCc3c([nH]c4ccccc34)C2=O)cc1
10%	O=C(O)c1cccc(NC(CNS(=O)(=O)c2ccc(Cl)cc2)c2ccccc2)c1 (stereo not given)
4%	Cc1ccccc1N1CCN(C2CCCN(C(=O)c3ccsc3)C2)CC1 (stereo not given)
4%	COc1cc(O)oc1C=Nc1ccc(Oc2ccccc2)cc1
-22%	Cc1c(OC(C)C(=O)N[C@@H](Cc2ccccc2)C(=O)O)ccc2c3c(c(=O)oc12)CCCC3 (stereo not given in full)
6%	CC(C)c1ccc2c(c1)NC(c1ccncc1)=NC(c1cccs1)=N2
6%	CCC(=O)c1ccc(OCC(=O)OC(C)C(=O)NCc2ccc3c(c2)OCO3)cc1 (stereo not given)
-2%	COc1ccc(-c2nc3sc(CCNC(=O)C(=O)Nc4cc(F)ccc4F)c(C)n3n2)cc1
6%	CC(=O)Oc1c(C)cc(OCC(O)CNC(C)C)c(C)c1C (stereo not given)
1%	O=C(CC1C(=O)NCCN1C/C=C/c1ccccc1)NCCc1cccnc1 (stereo not given)
-15%	Cc1c(CCOC(=O)c2ccccc2)sc[n+]1Cc1ccccc1
-8%	COCCCNC(=O)C(=O)N/N=C/c1cc2c(cc1Br)OCO2
3%	COc1ccccc1NS(=O)(=O)c1ccc(C)c(NS(=O)(=O)c2cc(NC(C)=O)ccc2OC)c1
-7%	CCC(C)C(NC(=O)C(Cc1ccc(O)cc1)NC(=O)C(N)C(C)C)C(=O)NC(Cc1cnc[nH]1)C(=O)N1CCCC1C(=O)NC(Cc1ccccc1)C(=O)O (stereo not given)
-5%	CCc1ccc(NC(=O)CC2C(=O)N(c3ccc(OC)cc3)C(=O)N2Cc2ccc(OC)cc2)cc1 (stereo not given)
0%	CC(=O)Oc1ccc(C(=O)Nc2nccs2)cc1
9%	COc1ccc(OC)c(Nc2nc(-c3sc(N)nc3C)cs2)c1
-3%	O=C(NCC1CCCO1)c1nn2cccnc2c1Cl (stereo not given)
-22%	Cc1cccc[n+]1CC(=O)c1ccc2c(c1)OCCO2
15%	Cc1ccsc1C(=O)OCc1csc(-c2ccccc2)n1
-19%	CS(=O)(=O)N(CC(=O)N1CCCCC1)Cc1ccc(Cl)cc1
-15%	COc1cc(NC(=S)N2CCN(CCO)CC2)c(OC)cc1Cl
-6%	CS(=O)(=O)N(CC(=O)NC1CCCC1)C1CCCCC1
10%	Cc1ccc(/C=N/NC(=O)c2ccc(C(=O)N/N=C/c3ccc(C)s3)o2)s1
10%	CC(C)c1nc(SCC(=O)Nc2cccc(S(N)(=O)=O)c2)n[nH]1
5%	CCOC(=O)c1ccc(NC(=O)CCc2c(C)nc3c(c(C)nn3C(C)(C)C)c2C)cc1
3%	c1ccc2nc3c(nc2c1)CCc1nonc1-3
-10%	O=C(NC1=NCCS1)c1ccc(Cl)c(S(=O)(=O)N2CCCC2)c1
-3%	CCCOc1ccc(Cc2nn[nH]n2)cc1

Continued:
VDR inh	Molecule
3%	Cc1ccc(OCC(=O)Nc2ccc(Cl)cc2)c([N+](=O)[O-])n1
-23%	CCN(CC)c1nc(C#N)nc(OC)n1
-15%	C=C(C)CSc1nc2sc3c(c2c(=O)n1CCCC)CCCC3
-6%	COc1ccc(CN2C(=O)c3cccnc3C2=O)cc1S(=O)(=O)N1CC(C)Oc2ccccc21 (stereo not given)
9%	CC(C)(C)c1ccc(-c2csc(NC(=O)CN3C(=O)NC4(CCCCC4)C3=O)n2)cc1
-18%	CCOC(=O)c1cc2c(=O)n3ccccc3nc2n(Cc2ccco2)c1=NC(=O)c1cccc(C)c1
-18%	Cc1cccc(C(=O)NCC(=O)N2CC=C(c3ccccc3)CC2)c1
14%	COc1cc(OC)cc(-n2nnnc2SCC(=O)NC2CCCC2)c1
-3%	C(=N\N1CCN(C2c3ccccc3-c3ccccc32)CC1)/c1ccccn1
10µM*!	N[C@@H](CSS(=O)(=O)O)C(=O)O
12%	Cc1cc(C)c(NC(=O)CN2C(=O)c3cccnc3Sc3ccccc32)c(C)c1
2%	NCCCCCNC(=O)/C=N\O
-10%	COCCn1cnnc1SCC(=O)Nc1sc2c(c1C#N)CCC2
22%	Cc1ccc(OCC(=O)Nc2ccc3c(c2)OCCO3)cc1C
-2%	COc1ccc(S(=O)(=O)N2CCCC(C(=O)N3CCOCC3)C2)cc1Cl (stereo not given)
7%	O=C(OCC(=O)N1CCc2ccccc21)c1cncc(Br)c1
-20%	COCC(C)NS(=O)(=O)c1ccc(C(=O)NC(Cc2ccccc2)c2ccccc2)cc1 (stereo not given)
-1%	COc1cc([N+](=O)[O-])cc2cc(C(=O)N3CCN=C3c3ccccc3)c(=O)oc12
-5%	CCOc1ccc(NC(=O)CCSc2nc(-c3ccc4c(c3)OCO4)cc(C(F)(F)F)n2)cc1

Filtered by structure, those above with a Cl atom
VDR inh	Molecule
-8%	Cc1nnsc1C(=O)Nc1cc(Cl)ccc1Cl
2%	CC(=O)c1ccc(NS(=O)(=O)c2cccc(S(=O)(=O)c3ccc(Cl)cc3)c2)cc1
-7%	CC1CCN(CCCCOc2ccc(Cl)cc2)CC1
12%	CS(=O)(=O)c1ccc(Cl)c(NC(=O)COC(=O)CCCN2C(=O)c3cccc4cccc(c34)C2=O)c1
-10%	COc1ccc(Cl)cc1C(=O)CSc1nnnn1C1CCCC1
-29%	CN1C[C@@H]2[C@@H]3C(=O)N(C)C(=O)[C@@H]3[C@](C)(C1=O)N2C(=O)c1ccc(Cl)cc1
-12%	O=C(COC(=O)c1ccc(Cl)nc1)Nc1ccc(N2CCOCC2)cc1
10%	O=C(O)c1cccc(NC(CNS(=O)(=O)c2ccc(Cl)cc2)c2ccccc2)c1 (stereo not given)
-3%	O=C(NCC1CCCO1)c1nn2cccnc2c1Cl (stereo not given)
-19%	CS(=O)(=O)N(CC(=O)N1CCCCC1)Cc1ccc(Cl)cc1
-15%	COc1cc(NC(=S)N2CCN(CCO)CC2)c(OC)cc1Cl
-10%	O=C(NC1=NCCS1)c1ccc(Cl)c(S(=O)(=O)N2CCCC2)c1
3%	Cc1ccc(OCC(=O)Nc2ccc(Cl)cc2)c([N+](=O)[O-])n1
-2%	COc1ccc(S(=O)(=O)N2CCCC(C(=O)N3CCOCC3)C2)cc1Cl (stereo not given)

The list is partial, so the mix of outcomes need not match the whole.
